Assay outcomes deposited in PubChem by ICCB-Longwood Screening Facility, Harvard Medical School.
MbtI inh: MbtI salicylate synthase inhibition; inhibition, %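 (about 17 µg/mL by stock and volumes)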; purified MbtI enzyme, fluorescence intensity read-out; AID 493033; 100,000 tested, 0.89% active;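 active = above 50% in both replicates, above 80% if mildly self-fluorescent; inactive = the rest, strongly fluorescent compounds included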;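 note: 0% = mean of negative and 100% = mean of positive controls; one replicate is shown; some compounds called inactive have numbers as strong as hits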
Target sequence (P9WFX0 whole entry, looked up): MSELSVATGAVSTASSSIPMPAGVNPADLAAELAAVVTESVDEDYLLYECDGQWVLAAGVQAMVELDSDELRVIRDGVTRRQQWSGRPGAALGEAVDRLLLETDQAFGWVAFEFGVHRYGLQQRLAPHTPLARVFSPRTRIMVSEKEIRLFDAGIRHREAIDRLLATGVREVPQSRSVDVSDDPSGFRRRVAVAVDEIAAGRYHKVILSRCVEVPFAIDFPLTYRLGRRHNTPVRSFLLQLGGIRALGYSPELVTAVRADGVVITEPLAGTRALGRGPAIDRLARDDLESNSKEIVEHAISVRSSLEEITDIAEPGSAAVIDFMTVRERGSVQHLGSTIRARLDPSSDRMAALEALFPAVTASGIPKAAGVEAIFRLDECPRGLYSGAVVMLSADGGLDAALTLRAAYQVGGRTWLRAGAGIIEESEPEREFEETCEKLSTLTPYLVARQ
Mtb MenB inh: inhibitors of Mycobacterium tuberculosis MenB enzyme; 100,000 tested, 0.43% active; inhibition, %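 (about 12 µg/mL by stock and volumes)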; AID 540299; MenB enzyme assay, absorbance read-out; some hits fall short of the stated cut; P9WNP5;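 active = mean of two replicates above 30%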;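 note: 0% = no compound and 100% = wells with inactive enzyme; the first replicate is given; strong numbers were not always called active; inactives centre near -10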
Target sequence (P9WNP5 whole entry, looked up): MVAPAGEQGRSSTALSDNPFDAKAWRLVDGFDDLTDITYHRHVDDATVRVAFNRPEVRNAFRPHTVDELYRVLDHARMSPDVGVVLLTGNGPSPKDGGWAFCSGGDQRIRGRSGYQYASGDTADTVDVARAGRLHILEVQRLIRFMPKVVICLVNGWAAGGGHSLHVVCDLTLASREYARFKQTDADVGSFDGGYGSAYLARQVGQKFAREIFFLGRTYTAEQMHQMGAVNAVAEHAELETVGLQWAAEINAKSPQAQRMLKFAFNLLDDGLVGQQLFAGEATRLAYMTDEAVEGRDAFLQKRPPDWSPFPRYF
PV pol inh: inhibitors of poliovirus RNA polymerase binding and polymerization | P03300 | poliovirus polymerase elongation, fluorescence polarization; hits give low values | % elongation, % (compound at 16.7 µg/mL) | 150,000 tested, 0.66% active; in the data active = % elongation below about 90%; note: some results filed as inactive read as strong as hits
PV pol inh intensity: also measured in PV pol inh; calls as there; % elongation; measured here: total intensity read-out; formula for this scale not given here;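 total fluorescence in place of polarization; lower means less elongation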
The depositor's hits bear a star; x = no result given.

#	molecule	PV pol inh intensity	Mtb MenB inh
1	CSc1ccc(C2CC(=O)NC3=C2C(=O)CCC3)cc1 (configuration not stated)	105.0	13.6
2	Cc1ccc2c(c1)N(C(C)C(=O)NCc1ccccn1)C(=O)CO2 (configuration not stated)	103.0	-38.3
3	CN(Cc1ccccc1)S(=O)(=O)c1cc(Br)cnc1N	100.0	-18.8
4	N#C/C(=C(/O)C(F)(F)F)c1nnc2n1CCCCC2	106.0	x
5	Cc1ccc(/C=N/N=C(/C(=O)c2ccccc2)c2ccccc2)o1	94.0	-43.5
6	C/C=C/C(=O)NCc1ccccc1	106.0	3.9
7	CCCNc1nc2nc3ccc(C)cn3c(=O)c2cc1C(N)=O	104.0	-101.3
8	CCC(CN1CCOCC1)NS(=O)(=O)c1cc2[nH]c3c(c2cc1C)C(=O)CC(C)(C)C3 (configuration not stated)	103.0	-34.1

#	MbtI inh	PV pol inh
1	13.3	97.0
2	0.7	97.0
3	-5.2	106.0
4	-14.2	102.0
5	-0.7	101.0
6	1.4	106.0
7	89.4	99.0
8	-13.4	101.0

(continued)
#	molecule	PV pol inh intensity	Mtb MenB inh
9	O=C(c1cc2ccccc2oc1=O)N(Cc1ccccc1)Cc1ccccc1	103.0	-4.0
10	O=C(O)/C=C/C(=O)N1CCOCC1	97.0	-15.6
11	Cc1ccc(CN(Cc2ccco2)C(=S)NCC(=O)NC2CC2)cc1	103.0	-8.8
12	COc1ccccc1NC(=O)Nc1sc2c(c1C(N)=O)CCC2	104.0	-21.1
13	O=S(=O)(c1cccc(-c2nn3c(-c4ccncc4)nnc3s2)c1)N1CCCCC1	91.0*	-0.5
14	Fc1ccccc1COc1cccc2cccnc12	106.0	-15.2
15	CC1CCN(C(=O)COC(=O)c2nn(-c3ccccc3C(F)(F)F)cc2O)CC1	97.0	2.0
16	Cc1ccc(Oc2ncccc2NC(=O)Nc2ccccc2)c2c1CCC2	107.0	-15.9

#	MbtI inh	PV pol inh
9	17.9	100.0
10	-3.4	97.0
11	-3.0	99.0
12	31.2	104.0
13	91.2	85.0*
14	-212.8	109.0
15	11.5	101.0
16	-12.5	107.0

The list goes on.
#	molecule	PV pol inh intensity	Mtb MenB inh
17	CCOc1ccc(NC(=O)Cn2c(C(=O)OC)ccc2-c2ccco2)cc1	103.0	-4.8
18	CCc1ccc(C(=O)c2cncc(Br)c2)cc1	103.0	-12.7
19	CCN(CC)CC1CCCNC1 (configuration not stated)	104.0	-2.0
20	O=C(c1ccc(Cl)nc1)N1CCN(C(c2ccccc2)c2ccccc2)CC1	107.0	-16.8
21	CCCCNC(=S)N1CCn2cccc2C1c1cccnc1 (configuration not stated)	100.0	-28.1
22	COC(=O)c1c(N)c(C#N)c(C)n1-c1ccccc1	104.0	-16.9
23	CC12CCC(=O)N1C(C(=O)OCc1nnc(-c3ccccc3)o1)CS2 (configuration not stated)	109.0	-2.7
24	Cn1c(=S)n(CN2CCOCC2)c2ccccc21	101.0	-25.8

#	MbtI inh	PV pol inh
17	-21.5	102.0
18	-97.5	99.0
19	-2.5	102.0
20	-3.7	106.0
21	-12.1	101.0
22	-27.9	100.0
23	-4.4	98.0
24	15.8	104.0

Next part
#	molecule	PV pol inh intensity	Mtb MenB inh
25	NC(Cc1c[nH]c2ccccc12)C(=O)NCc1ccccc1 (configuration not stated)	101.0	-7.4
26	Cc1c(C(=O)N2CCCCC2)c(S(=O)(=O)N2CCC(C)CC2)c(C)n1C	101.0	-32.1
27	CC(C)=NNc1ccc2nnc(-c3ccccc3)n2n1	101.0	-37.8
28	O=C1C2=C(Nc3ccccc3S(=O)(=O)C2c2ccc(Cl)cc2)c2ccccc21 (configuration not stated)	102.0	-24.5
29	CSc1ccccc1-c1nc(-c2ccccc2)no1	102.0	-7.8
30	Cn1c(-c2cc3ccc(OC(=O)c4ccco4)cc3oc2=O)nc2ccccc21	106.0	-3.0
31	CN(C)CCN1C(=O)c2ccccc2C1=O	104.0	-6.5
32	O=C(c1cc2sccc2n1Cc1ccccc1)N1CCCCC1	102.0	-26.7

#	MbtI inh	PV pol inh
25	-12.9	102.0
26	-17.8	102.0
27	2.0	102.0
28	8.8	107.0
29	-7.2	100.0
30	10.9	100.0
31	-7.2	104.0
32	6.8	101.0

(listing goes on)
#	molecule	PV pol inh intensity	Mtb MenB inh
33	CNC(=O)CSc1nnc(Nc2ccc(C(C)C)cc2)s1	99.0	1.6
34	Cc1ccc(S(=O)(=O)N(C(F)F)C(C)(C)C)cc1	91.0	-12.1
35	C=C(C)Cn1c(SCC(=O)N/N=C/c2ccc(OC)cc2)nc2ccccc2c1=O	101.0	-4.1
36	CC(Sc1nc(-c2ccccc2)cc(C(F)(F)F)n1)C(=O)NCc1ccccc1 (configuration not stated)	107.0	-31.9
37	O=C(/C=C/N(c1ccccc1)c1ccccn1)C(F)(F)F	109.0	-27.8
38	Cn1c(O)c(C=NCCN2CCN(C(=O)c3ccccc3)CC2)c(=O)n(C)c1=O	101.0	-8.6
39	Cc1cc(C(=O)CSc2nc3cc(S(=O)(=O)N(C)C)ccc3o2)c(C)n1-c1ccc2c(c1)OCO2	111.0	3.3
40	CC(=O)Nc1cc(OC(C)=O)c2nonc2c1OC(C)=O	42.0	-123.5

#	MbtI inh	PV pol inh
33	19.6	104.0
34	10.6	95.0
35	-1.9	101.0
36	-5.3	102.0
37	-17.4	101.0
38	8.8	106.0
39	-6.7	108.0
40	1.7	97.0

New compounds follow.
#	molecule	PV pol inh intensity	Mtb MenB inh
41	CC1CCCN(C(=O)CN2CCN(C(=O)c3ccco3)CC2)C1 (configuration not stated)	103.0	21.0
42	CC(CN1CCOCC1)OC(=O)C1c2ccccc2Oc2ccccc21 (configuration not stated)	102.0	-13.1
43	O=C(Cc1ccc(-c2ccccc2)cc1)OCC(=O)N1CCCC1	102.0	-31.4
44	CCC(=O)N1c2ccccc2NC2=C(C(=O)CC(c3ccco3)C2)C1c1ccco1 (configuration not stated)	103.0	-6.7
45	COC(=O)c1cc(COC(=O)c2ccc3ncsc3c2)oc1C	100.0	8.7
46	O=C(NCc1cccnc1)c1cccc(NC(=O)N2CCCCc3ccccc32)c1	103.0	-15.3
47	O=c1[nH]c2ccccc2c(=O)n1NS(=O)(=O)c1ccc2ccccc2c1	103.0	5.1
48	COc1ccc2c(CCl)cc(=O)oc2c1	96.0	x

#	MbtI inh	PV pol inh
41	-0.6	102.0
42	-10.2	100.0
43	-10.9	109.0
44	-1.9	102.0
45	-19.4	100.0
46	7.4	101.0
47	20.9	100.0
48	53.1	99.0

Seven entries out of the list, ordered by molar mass, rising:
#	molecule	PV pol inh intensity	Mtb MenB inh
48	COc1ccc2c(CCl)cc(=O)oc2c1	96.0	x
40	CC(=O)Nc1cc(OC(C)=O)c2nonc2c1OC(C)=O	42.0	-123.5
41	CC1CCCN(C(=O)CN2CCN(C(=O)c3ccco3)CC2)C1 (configuration not stated)	103.0	21.0
45	COC(=O)c1cc(COC(=O)c2ccc3ncsc3c2)oc1C	100.0	8.7
42	CC(CN1CCOCC1)OC(=O)C1c2ccccc2Oc2ccccc21 (configuration not stated)	102.0	-13.1
44	CCC(=O)N1c2ccccc2NC2=C(C(=O)CC(c3ccco3)C2)C1c1ccco1 (configuration not stated)	103.0	-6.7
39	Cc1cc(C(=O)CSc2nc3cc(S(=O)(=O)N(C)C)ccc3o2)c(C)n1-c1ccc2c(c1)OCO2	111.0	3.3

#	MbtI inh	PV pol inh
48	53.1	99.0
40	1.7	97.0
41	-0.6	102.0
45	-19.4	100.0
42	-10.2	100.0
44	-1.9	102.0
39	-6.7	108.0

(cont.)
#	molecule	PV pol inh intensity	Mtb MenB inh
49	S=C1NC2(CCCCC2)NN1c1ccccc1	104.0	4.5
50	CN(C)CCN1C(c2ccccc2)=CC(=C2C(=O)N(C)C(=O)N(C)C2=O)C2=C1CCCC2	102.0	-44.9
51	Cc1cc(-c2cccs2)c2c(N)c(C(=O)c3ccc4c(c3)OCO4)sc2n1	135.0	2.4
52	O=C(O)C1=CC2c3ccccc3C1c1ccccc12	107.0	6.9
53	FC(F)(F)c1n[nH]c(=S)n1/N=C/c1c[nH]c2ccccc12	105.0	-5.0
54	CN(C(=O)CSc1nc2ccccc2[nH]1)C1CCS(=O)(=O)C1 (configuration not stated)	97.0	4.4
55	CCN1C[C@]2(C)CC[C@H](O)C34C5C[C@H]6C(O)C5[C@](O)(C[C@@H]6OC)C(CC32)[C@@H]14 (some centres not stated)	101.0	-0.6
56	O=C(Cc1cccs1)NCCC1=CCCCC1	105.0	-17.0

#	MbtI inh	PV pol inh
49	7.6	103.0
50	-2.9	105.0
51	-4.2	87.0
52	x	106.0
53	x	95.0
54	2.6	101.0
55	-19.2	100.0
56	-12.9	100.0

(continued)
#	molecule	PV pol inh intensity	Mtb MenB inh
57	COC(=O)C1=C(C)N(C)C(C)=C(C(=O)OC)C1c1ccccc1	103.0	-16.6
58	Cc1cc(C(F)(F)F)nn1CC(=O)N(C)c1ccccc1	103.0	-11.5
59	COc1ccccc1C/C(C)=N/NC(N)=S	104.0	-57.0
60	Oc1ccc(/C=N/c2c(-c3ccco3)nc3ccc(Cl)cn23)cc1	101.0	-18.1
61	Oc1ccccc1N=Cc1sc2ccccc2c1Cl	101.0	x
62	Cc1cccc(NC(=O)C(F)(F)F)c1C	101.0	-26.4
63	CN1C(=O)C(Cc2ccccc2)(c2ccccc2)c2ccccc21 (configuration not stated)	106.0	-22.3
64	CN(C)C1NC(=O)c2cc(-c3ccccc3)sc2N1 (configuration not stated)	99.0	-10.6

#	MbtI inh	PV pol inh
57	-0.8	104.0
58	-11.6	103.0
59	21.0	102.0
60	20.6	102.0
61	-0.8	100.0
62	-4.6	99.0
63	-9.8	105.0
64	-2.8	102.0

Carrying on.
#	molecule	PV pol inh intensity	Mtb MenB inh
65	COC(=O)c1nc2ccccc2n1Cc1ccc(C)cc1	102.0	0.6
66	COc1cccc(C(c2nnnn2CCC(C)C)N2CCN(Cc3ccccc3)CC2)c1OC (configuration not stated)	100.0	-55.5
67	O=C1CCC(=O)N1CC(O)CCOc1ccc(OCCC(O)CN2C(=O)CCC2=O)cc1 (configuration not stated)	104.0	-26.7
68	CNC(=O)c1cccn1-c1nnc(N2CCCCC2)s1	101.0	-24.9
69	CC1=C/C(=N\Nc2ccnc3cc(Cl)ccc23)CC1	107.0	-79.7
70	S=C(NCc1ccco1)N1CCN(c2cccc(Cl)c2)CC1	98.0	-28.2
71	COc1cccc(NC(=O)CCCC(=O)Nc2cccc(OC)c2)c1	101.0	x
72	Cc1ccc(C(c2nnnn2Cc2ccccc2)N2CCC(C)CC2)cc1 (configuration not stated)	102.0	5.9

#	MbtI inh	PV pol inh
65	27.1	99.0
66	-6.8	107.0
67	-13.2	104.0
68	12.6	99.0
69	-96.3	104.0
70	11.1	101.0
71	-6.5	98.0
72	-10.4	101.0

(list continues)
#	molecule	PV pol inh intensity	Mtb MenB inh
73	Cc1ccc(NC(=O)Nc2sc(=S)n(C)c2C)cc1	104.0	-19.1
74	O=C(CN1CCN(c2ccccc2)CC1)NC1CC1	100.0	-10.2
75	Cc1ccccc1-n1cc[nH]c1=S	x	-19.1
76	C=CCn1c(COc2ccc(CC)cc2)nnc1SCc1nc2sc(C)c(C)c2c(=O)[nH]1	109.0	-12.6
77	Cc1ccc(-n2nc(C)cc2C)nn1	104.0	4.8
78	N#CCCn1c2c(ccc1=O)CCCC2	98.0	6.9
79	O=C(Cc1ccc2c(c1)OCCO2)N1CCN(C(=O)C2CCCO2)CC1 (configuration not stated)	107.0	1.8
80	N#CC1=C(N)Nc2onc(-c3cccc(O)c3)c2C1c1ccccc1 (configuration not stated)	111.0	-17.7

#	MbtI inh	PV pol inh
73	18.7	102.0
74	-19.0	99.0
75	27.8	x
76	11.3	106.0
77	2.0	102.0
78	1.6	103.0
79	-8.7	103.0
80	x	109.0

Continued:
#	molecule	PV pol inh intensity	Mtb MenB inh
81	N#CCOc1nc(OCC#N)nc(OCC#N)n1	105.0	11.0
82	CCCCN1C(=O)CC(C(=O)NC2CCCCCC2)C1c1ccc(OC)cc1 (configuration not stated)	104.0	-23.5
83	O=C(O)/C=C/c1nc2ccccc2o1	102.0	1.4
84	Cc1nc2cc(C(F)(F)F)ccc2n1C1CCN(CC(=O)N2CCCC2)CC1	101.0	-82.8
85	COc1ccc(N=Cc2cccn2-c2ccc(Br)cc2)cn1	106.0	-34.2
86	CN1C(C(=O)N2CCCC2)=CC(c2cccs2)=NS1(=O)=O	109.0	-28.4
87	O=S(=O)(c1ccc(N2CCC(CNc3nc4ccccc4s3)CC2)cc1)N1CCOCC1	101.0	39.1*
88	Cc1nccc(-c2cccc(NN=C(C#N)C#N)c2)n1	96.0	-200.6

#	MbtI inh	PV pol inh
81	1.8	102.0
82	9.2	100.0
83	104.8	102.0
84	-5.3	105.0
85	x	108.0
86	-12.6	104.0
87	42.8	103.0
88	-6.1	100.0

(cont.)
#	molecule	PV pol inh intensity	Mtb MenB inh
89	CC(C)(C)NC(=O)CSc1nnc(NC(=O)C2CC(=O)N(c3ccc(F)cc3)C2)s1 (configuration not stated)	107.0	5.3
90	Cc1cccc(N(Cc2cc3ccccc3[nH]c2=O)S(C)(=O)=O)c1	101.0	-19.2
91	O=C1NC(=O)C(=CN2CCN(S(=O)(=O)/C=C/c3ccccc3)CC2)C(=O)N1	94.0	-68.7
92	CC1(C)CC(=O)C(C=NCc2cccnc2)=C(O)C1	103.0	-12.5

#	MbtI inh	PV pol inh
89	8.1	99.0
90	-0.7	103.0
91	7.4	102.0
92	-6.2	102.0
